Mtb bLac sens: beta-lactam sensitization of Mtb H37Rv; 0.27% of 330,000 active; M. tuberculosis H37Rv growth with meropenem, percent inhibition; hits of this screen are not shown here; AID 434955; inhibition, % at 25 µM;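 active = about 74% or more and at least 40 points above the plate without the antibiotic, then above 30% in a dose series; inconclusive = first-round hits that could not be retested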;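 note: growth measured after seven days incubation then overnight dye step; 0% = bacteria only wells and 100% = bacteria with antibiotic; twin plates without the antibiotic show which effects depend on it; some results filed as inactive read as strong as hits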
RecA splice inh: blocks M. tuberculosis RecA intein splicing. inhibition, %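 (about 9 µM by stock and volumes)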. cell-free RecA intein splicing, fluorescence. 0.75% of 290,000 active. AID 2221; in the data active = inhibition above about 30%; inconclusive = no clear call, values can overlap the other calls;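 note: 0% = vehicle wells and 100% = reference inhibitor control wells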
Target sequence (P9WHJ3 whole entry, looked up, canonical isoform): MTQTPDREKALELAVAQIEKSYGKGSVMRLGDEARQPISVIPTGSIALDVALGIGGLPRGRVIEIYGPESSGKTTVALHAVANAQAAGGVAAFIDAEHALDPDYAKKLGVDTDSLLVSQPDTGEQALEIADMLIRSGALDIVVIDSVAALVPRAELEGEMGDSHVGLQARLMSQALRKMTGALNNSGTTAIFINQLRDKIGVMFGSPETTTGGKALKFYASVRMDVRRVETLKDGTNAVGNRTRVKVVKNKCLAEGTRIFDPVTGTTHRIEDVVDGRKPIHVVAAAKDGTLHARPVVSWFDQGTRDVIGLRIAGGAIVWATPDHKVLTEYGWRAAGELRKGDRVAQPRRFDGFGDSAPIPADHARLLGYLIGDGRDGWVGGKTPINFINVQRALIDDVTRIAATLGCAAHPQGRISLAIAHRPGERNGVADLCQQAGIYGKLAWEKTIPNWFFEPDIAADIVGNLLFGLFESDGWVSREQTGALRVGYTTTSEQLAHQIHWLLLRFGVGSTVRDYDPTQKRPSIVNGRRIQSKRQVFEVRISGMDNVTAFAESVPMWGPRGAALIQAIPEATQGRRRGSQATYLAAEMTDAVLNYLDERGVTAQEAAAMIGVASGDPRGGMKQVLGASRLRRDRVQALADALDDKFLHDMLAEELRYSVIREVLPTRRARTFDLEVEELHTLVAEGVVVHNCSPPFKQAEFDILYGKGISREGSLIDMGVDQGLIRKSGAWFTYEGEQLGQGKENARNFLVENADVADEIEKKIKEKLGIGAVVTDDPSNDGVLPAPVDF
YopH PTP inh: blocks Yersinia enterocolitica YopH tyrosine phosphatase; fluorescence Ex485/Em525; inhibition, %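 (about 10 µM by stock and volumes)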; 0.16% of 140,000 active; AID 898;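 active = inhibition of 50% or more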;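 note: controls were vehicle for no effect and minimum signal wells for full effect; inactives centre near -20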
Arbovirus anti: arbovirus infection inhibition; arbovirus infection cell-based antiviral screen; inhibition, % at 10 µM; 0.37% of 200,000 active; AID 1251;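 active = inhibition from about 30%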;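 note: bluetongue infection of BSR cells; cell survival read as ATP light after 72 h; 0% = infected wells without compound and 100% = uninfected wells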
Mtb H37Rv: M. tuberculosis H37Rv growth inhibitors, H37Rv strain (AID 1626); M. tuberculosis H37Rv growth inhibition; higher % means a stronger effect; inhibition, % at 10 µM; hits with a dose series show IC50 in µM; 0.95% of 220,000 active;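 active = confirmed in a dose series; inconclusive = inhibition above 80% but not taken into the dose series; inactive = below 80% or under 30% at every dose of the series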;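 note: bacteria incubated seven days before Alamar blue readout; 0% = bacteria only wells and 100% = bacteria with antibiotic wells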
Arbovirus anti repeat: also measured in Arbovirus anti; calls as there; inhibition, %; measured here: 10K subset replicate screen; many hits read low in the repeat;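 first of two repeat runs on a subset; 0% = infected and 100% = uninfected wells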
* = called active by the depositor; u = inconclusive; x = no result given.

SMILES | Mtb bLac sens | RecA splice inh | YopH PTP inh | Arbovirus anti | Mtb H37Rv | others
CN(CC(=O)Nc1ccccc1Br)C(=O)C1CCN(C(=O)c2ccc(Cl)cc2)CC1 | -6 | 1.0 | x | x | x
CC(C)NC(=O)c1c(O)c2cccc3c2n(c1=O)CCC3 | -1 | -0.3 | x | x | x
COc1ccccc1CNC(=O)C1(C)Oc2cccnc2NC1=O (configuration not stated) | -7 | 1.8 | x | -5 | 3%
Cc1nc2cc(C(F)(F)F)ccc2n1C1CCN(Cc2nnnn2Cc2cccs2)CC1 | 0 | 0.8 | -6 | 14 | 0% | Arbovirus anti repeat=-3
CC(C)CNS(=O)(=O)c1cc(C(=O)OCC(=O)c2ccc3c(c2)OCCO3)c(Cl)cc1Cl | -11 | 6.0 | -18 | 6 | -3%
Cc1ccc(SCc2cn3cccnc3n2)cc1 | 2 | 1.0 | 18 | 8 | -7%
O=C(CSc1nc(-c2ccccc2)cc(=O)[nH]1)Nc1ccccn1 | -7 | 4.2 | -12 | -5 | 6%
Cc1cccc2cc(CN(C(=O)c3cccs3)c3ccccc3)c(=O)[nH]c12 | -1 | 1.4 | -10 | 2 | -2%
COc1ccccc1CCN1CCCC(CN(C)C(=O)c2ccc3nc[nH]c3c2)C1 (configuration not stated) | -3 | -0.3 | x | x | x
CCCCN(CC)C(=O)C1CCC(=O)N(c2ccc(OC)cc2)C1c1ccc(OC)c(OC)c1 (configuration not stated) | -8 | x | -41 | x | x
O=C(NNC(=S)Nc1ccccc1C(F)(F)F)c1ccc(Br)o1 | 0 | 6.3 | x | 7 | -6%
CCCN(CCC)S(=O)(=O)c1ccc(C(=O)NCc2ccc3c(c2)OCO3)cc1 | 0 | -1.2 | -42 | 0 | 1% | Arbovirus anti repeat=0
O=C(Nc1cc(Cl)ccc1-n1cncn1)c1ccc([N+](=O)[O-])s1 | 94 | -9.1 | x | x | x
CCOC(=O)C(C)Sc1ncc(-c2ccccc2)cn1 (configuration not stated) | 93 | 3.4 | x | -1 | -6%
Cc1c(C)n(-c2ccccc2)c2ncnc(NCCCN(C)C)c12 | 3 | -0.4 | x | x | x
O=C(C1=NN[C@@H]2C(=O)N(c3cccc(F)c3)C(=O)[C@H]12)C(c1ccccc1)c1ccccc1 | -5 | 2.0 | -17 | 4 | -6%
COc1cc(-c2nnc(SCC(=O)Nc3cc(C)on3)n2C)cc(OC)c1O | 0 | -0.4 | -2 | 22 | -4%
COc1cc2c(cc1OC)CN(C(=O)CN1CCN(S(=O)(=O)c3ccccc3Br)CC1)CC2 | 8 | -0.3 | x | x | x
Cn1cnc2cc(NS(=O)(=O)c3ccc(Br)cc3)ccc21 | -3 | x | -20 | -3 | -4%
Cc1ccc(COCC(CC(C)C)N2CCN(C(=O)c3cccc(C(F)(F)F)c3)CCC2=O)cc1 (configuration not stated) | -3 | 4.6 | -20 | 8 | -6%
Cc1cc(NC(=O)CCc2ccccc2)c([N+](=O)[O-])cc1C | 2 | -1.4 | 9 | -18 | 10%
COc1ccccc1C(=O)N/C(=N/c1nc(C)cc(C)n1)Nc1ccccc1 | 4 | 3.2 | x | x | 9%
O=C(Nc1ccccc1)c1cc(S(=O)(=O)NCc2ccncc2)ccc1Cl | 2 | -1.2 | x | x | x
CCN(CC)C(=O)CN(c1cccc(C(F)(F)F)c1)S(C)(=O)=O | -5 | -1.4 | -25 | 8 | 1%
COc1cccc(C(=O)c2c[nH]c(C(=O)NCc3ccco3)c2)c1 | 66 | -1.1 | -4 | -6 | 4%
Cc1ccc(Oc2ccc(Cl)cc2NC(=O)c2cnccn2)cc1 | -7 | -1.5 | -6 | 4 | 7%
FC(F)(F)COc1nc(N2CCOCC2)nc(N(c2ccccc2)c2ccccc2)n1 | -1 | 1.7 | -7 | 12 | -10%
O=S(=O)(NCC1CCCO1)c1cc(Cl)ccc1Cl (configuration not stated) | 1 | 0.0 | -4 | -3 | -2%
CC1(N(O)/C=C2\C=CC=CC2=O)CCCCC1=O (configuration not stated) | -6 | -5.3 | x | x | -4%
Cc1cc(=O)oc2c(C)c(OCC(=O)NCCCn3ccnc3)ccc12 | 3 | -2.5 | x | x | x
CCc1nnc(NC(=O)CSc2nnc(C)n2CC2CCCO2)s1 (configuration not stated) | u | -29 | -35 | 0 | -9%
Cc1ccccc1N1CCN(Cc2cccc(C(=O)O)c2)CC1 | -13 | -8.4 | -42 | 5 | -1%
O=C(CCC(=O)Nc1nnc(C2CCCCC2)s1)NCc1ccc(F)cc1 | -3 | -1.5 | x | x | x
O=C(NCc1ccccc1)C1COc2ccccc2O1 (configuration not stated) | 11 | x | -15 | -1 | 13%
O=C1CC(Sc2nnnn2-c2ccccc2)C(=O)N1c1cccc(Cl)c1 (configuration not stated) | -6 | 12 | -21 | -2 | -7%
CC(=O)N(C)c1ccc(NC(=S)Nc2ccccc2)cc1 | -3 | 3.1 | -27 | 5 | -2%
Cc1[nH]c2ccccc2c1/C=N/Nc1nncn1N | 3 | 14 | x | -3 | 7%
COCCCN1CC(=O)N2C(c3ccc(OC)c(OC)c3)c3[nH]c4ccccc4c3C[C@H]2C1=O (some centres not stated) | 4 | -2.3 | x | x | x
CN(C(=O)c1coc(=O)c2ccccc12)c1ccccc1Cl | -2 | -0.2 | x | 14 | 3%
COc1ccc(NC(=O)CSc2nc(N)c3cc4c(nc3n2)CCCC4)c(OC)c1 | -8 | 1.9 | -5 | -15 | -8%
Cc1csc2sc(-c3ccnc(SCC(=O)NCc4ccccc4)n3)c(C)c12 | -7 | -0.5 | x | x | 0%
Cc1nc(NC(=S)NC(=O)c2ccco2)sc1C(=O)N(C)C | -14 | -3.5 | x | x | x
Cc1cc2c(cc1C)/C(=C\C(N)=O)NC(C)(C)C2 | -1 | 2.4 | -29 | 9 | 0%
CCCCOc1ccc(N=Cc2cccs2)cc1 | 99 | 1.2 | -18 | -14 | u
COc1ccc2nc(Nc3nc(CSc4nnnn4-c4ccccc4)cc(=O)[nH]3)nc(C)c2c1 | -1 | 2.0 | -8 | -23 | -4%
CC(OC(=O)c1cc2sccc2n1C)C(=O)NCc1ccc(F)cc1 (configuration not stated) | 0 | -3.6 | 18 | -21 | -4%
O=C1CCCC2=C1C(c1ccsc1)CC(=O)N2c1ccccc1F (configuration not stated) | 6 | -9.1 | x | 4 | -5%
CCOCC(=O)Nc1nnc(Cc2ccc(OC)cc2)s1 | 53 | 4.9 | -10 | 6 | -2%
Cc1ccc(F)c(Oc2cc(NN3CCCCC3)c([N+](=O)[O-])cc2[N+](=O)[O-])c1 | 1 | -2.7 | x | x | x
CN1CCN(CC(=O)Nc2ccc(Cl)cc2C(=O)c2ccccc2)CC1 | -2 | -1.6 | -22 | -3 | 6%

The list continues:
SMILES | Mtb bLac sens | RecA splice inh | YopH PTP inh | Arbovirus anti | Mtb H37Rv | others
O=C(O)COc1ccccc1/C=N/Nc1ccc(S(=O)(=O)Nc2ccc(Cl)cc2)cc1[N+](=O)[O-] | -1 | 7.1 | x | 6 | 0%
S=C(NNC(=S)Nc1ccccc1)Nc1ccccc1 | -4 | -8.9 | x | x | x
O=C(c1ccc2c(c1)OCCO2)N1CCN(Cc2ccccc2)CC1 | -1 | -0.3 | 2 | 3 | -6%
CC(C)Cn1c(=O)c2ccccc2n2c(SCC(=O)N3c4ccccc4CC3C)nnc12 (configuration not stated) | -4 | -0.7 | -18 | 6 | 1%
CC(Oc1ccc(Cl)cc1Cl)C(=O)NNC(=O)c1ccncc1 (configuration not stated) | 97 | 1.8 | x | x | x
COc1ccc(Nc2nnc(-c3ccc(C(N)=O)cc3)c3ccccc23)cc1 | 2 | -0.5 | x | x | x
COc1cc(C2C(C#N)=C(N)OC3=C2C(=O)CC(C)(C)C3)ccc1OCCN1CCOCC1 (configuration not stated) | 4 | 0.9 | x | x | -6%
COc1ccc(NC(=O)CN(C)C(=O)CCCNC(=O)c2ccc(Cl)cc2)cc1 | -1 | -1.7 | x | x | x
CCN1C(=O)CC(N2CCN(c3ccc(Cl)cc3)CC2)C1=O (configuration not stated) | -5 | 25 | -40 | 0 | 3% | Arbovirus anti repeat=4
COc1cc(C(=O)OCC(=O)N2CCOCC2)c([N+](=O)[O-])cc1OC | -2 | -0.3 | x | x | x
Cc1ccccc1OCC(=O)Nc1ccc(S(=O)(=O)Nc2onc(C)c2C)cc1 | 1 | -2.1 | x | x | x
O=C(Nc1ccccn1)c1cccc(S(=O)(=O)N2CCOCC2)c1 | -2 | 0.5 | -12 | 6 | 10% | Arbovirus anti repeat=7
O=C(c1ccco1)N1N=C(c2ccc(Cl)cc2)CC1c1ccco1 (configuration not stated) | 4 | -3.5 | x | x | x
O=C(c1cccnc1)c1cccnc1 | 50 | -0.3 | -19 | 1 | 3%
CCCc1cc(=O)oc2cc(OCC(=O)Nc3ccc4c(c3)OCCO4)ccc12 | 0 | -2.2 | -8 | -6 | 14%
CN(CCN1CCOCC1)Cc1nc(-c2cccs2)no1 | 1 | -4.1 | x | 2 | 3%
COc1ccc([N+](=O)[O-])cc1N(CC(=O)N1CCCCC1)S(C)(=O)=O | -6 | -2.7 | x | 6 | -3%
CC(C)(C)C(=O)COC(=O)c1cc(-c2ccncc2)nc2ccccc12 | 4 | 1.6 | x | -1 | 0%
COc1ccc(C2C(C#N)=C(N)N(N(C)C)C3=C2C(=O)CCC3)cc1 (configuration not stated) | -1 | -2.9 | x | x | x
CCCCC(CC)C(=O)Nc1ccc(Cl)cn1 (configuration not stated) | -6 | -1.1 | -24 | -4 | 1%

Quoted at random: 5 entries already listed, in no set order.
SMILES | Mtb bLac sens | RecA splice inh | YopH PTP inh | Arbovirus anti | Mtb H37Rv | others
Cc1ccc(SCc2cn3cccnc3n2)cc1 | 2 | 1.0 | 18 | 8 | -7%
CC(OC(=O)c1cc2sccc2n1C)C(=O)NCc1ccc(F)cc1 (configuration not stated) | 0 | -3.6 | 18 | -21 | -4%
Cc1csc2sc(-c3ccnc(SCC(=O)NCc4ccccc4)n3)c(C)c12 | -7 | -0.5 | x | x | 0%
CC(C)CNS(=O)(=O)c1cc(C(=O)OCC(=O)c2ccc3c(c2)OCCO3)c(Cl)cc1Cl | -11 | 6.0 | -18 | 6 | -3%
COc1cccc(C(=O)c2c[nH]c(C(=O)NCc3ccco3)c2)c1 | 66 | -1.1 | -4 | -6 | 4%

Continued.
SMILES | Mtb bLac sens | RecA splice inh | YopH PTP inh | Arbovirus anti | Mtb H37Rv | others
CCOC(=O)c1oc2c(O)c(O)ccc2c(=O)c1-c1nncn1-c1ccccc1 | 8 | -2.7 | -25 | -1 | -8%
CC(=O)c1ccc(S(=O)(=O)NCc2cccnc2)cc1 | 2 | -1.9 | x | x | x
Cc1ccnc(NC(=O)Cn2c(=O)oc3cc(S(=O)(=O)N4CCCC4)ccc32)c1 | -8 | -2.8 | x | x | x
Cc1ccccc1-n1nc2c(c1NC(=O)C(C)C)CS(=O)(=O)C2 | 2 | 0.7 | x | x | x
COc1cc(NC2c3ccccc3C(=O)N2Cc2ccccc2)cc(OC)c1OC (configuration not stated) | -2 | 0.4 | x | x | 10%
O=C(CN(C(=O)CCC(=O)Nc1nccs1)c1ccc(F)cc1)NCC1CCCO1 (configuration not stated) | -3 | 6.1 | -38 | 1 | -7%
CC(C)N(c1ccccc1)c1ccc(NC(=S)NCCN(C)C)cc1 | 18 | 9.2 | x | -25 | 46%
O=C(Nc1cccc(S(=O)(=O)N2CCCC2)c1)c1ccc2ccccc2n1 | -7 | -0.5 | x | 5 | 9%
COCN(C#N)c1nc(OC)nc(OC)n1 | 15 | 1.4 | -34 | 2 | 10% | Arbovirus anti repeat=3
COc1cc(C(=O)NC(=S)Nc2nc(-c3ccc(F)cc3)cs2)cc(OC)c1OC | 56 | -1.2 | x | x | x
CCOc1ccc(S(=O)(=O)N2CCC(c3ccccc3)CC2)cc1C(=O)O | -4 | -2.9 | x | x | x
C[C@]12CCC3[C@@H](CCC4=CC(=O)CC[C@@]43CO)C1CCC2=O (some centres not stated) | -1 | -2.3 | x | x | x
CC(=O)C1=C(C)N(c2ccccc2)C(=O)C1(NS(=O)(=O)c1ccc(N)cc1)C(F)(F)F (configuration not stated) | 2 | 0.7 | x | 2 | 0%
OC(CNc1nc(C(F)(F)F)nc2ccccc12)c1ccccc1 (configuration not stated) | 7 | -1.7 | x | x | x
O=C(NC1CC1)C1=C[C@@H](c2csc3ccccc23)C[C@@H](OCc2ccc(CO)cc2)O1 | -3 | 4.7 | x | -6 | 5%
CC(=O)Nc1ccc(O)cc1[N+](=O)[O-] | -6 | 5.5 | x | x | 1%
COc1ccc(OC)c(S(=O)(=O)N2CCCC(C(=O)NCCc3ccccc3)C2)c1 (configuration not stated) | -1 | 1.5 | x | x | x
COC(=O)C1=C(C)N(C)C(=O)NC1c1cc(Cl)c(O)c(OC)c1 (configuration not stated) | 4 | -0.5 | -2 | 4 | -10%

From PubChem BioAssay

Only part of the results is shown, so the mix of outcomes need not match the whole.
